# MT1-MMP act inh = MT1-MMP (human) activation inhibition; GFP/RFP ratio change, % at 20 µM; AID 651647; 360,000 tested, 0.061% active; HT1080 RFP-PRO-GFP cells, GFP/RFP ratio fluorescence, overnight; percent of plate control window, DMSO zero; P50281;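 active = GFP/RFP ratio change of at least 30% with cell ATP level not reduced by more than half and red fluorescence within 50% of control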; also: strong numbers were not always called active
#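 Material – HT1080 RFP-PRO-GFP cells · Control set – DMSO wells and RFP-L50D-GFP cells · Incubation – overnight cell settling, then overnight compound exposure, 37 °C, 5% CO2 · Compound dosing – single-point 20 µM compound, 1% DMSO · Read-out – GFP/RFP fluorescence ratio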
# HIV Env fusion = inhibitors of HIV Env-mediated cell fusion | HeLa-JRFL Env/CEM21 cell fusion, luciferase | 360,000 tested, 1.1% active | AID 651610 | inhibition, % at 12.3 µM;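 active = mean replicate inhibition score of at least 50 and every replicate individually at or above 50; inconclusive = only one of the two criteria met; inactive = mean below 50 and not all replicates reaching 50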;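 also: 0% = plate neutral controls and 100% = maraviroc near 300 nM; one replicate is shown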
# CSC inhib = cancer stem cell inhibition; cancer stem cell-like cells viability, luminescence; inhibition, % at 7.5 µM; 300,000 tested, 1.1% active; AID 2717;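 active = mean at 75% or more and at least half the replicates too; inconclusive = mean and replicates disagree; tested in HMLE shEcad cells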;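 also: 0% = median of negative and 100% = median of positive control wells; the first replicate is given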
# Yeast UUG start = modulators of start codon recognition fidelity in yeast; AID 602363; 350,000 tested, 0.13% active; S. cerevisiae UUG-firefly luciferase reporter, luminescence/redox ratio; activity score, % at 18.7 µM;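 active = replicate mean at a twofold rise or more, about +100% in these data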;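 also: firefly luciferase made from a UUG start codon reports start codon fidelity; reporter light over untreated wells divided by growth signal over untreated wells; some hits fall short of that in this replicate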
# eIF4H inh = inhibitors of RNA binding by human eIF4H | AID 2012 | inhibition, % at 35 µM | Q15056 | 290,000 tested, 0.94% active | eIF4H fluorescence polarization binding assay;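 active = 50% or more with normal probe brightness, or confirmed in later tests; inconclusive = above 50% with abnormal brightness, or retests that disagree; inactive = below 50% or failed in later tests; about a fifth of its hits are not listed in these tables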;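 also: calls also rest on retests at 20 µM and on dose response follow-up; 0% = protein and probe with vehicle and 100% = probe without protein; strong numbers were not always called active; many hits fall short of the cut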
# Rce1 inhib = yeast Ras-converting enzyme inhibition; Q03530; yeast membranes, quenched prenylated peptide cleavage fluorescence; calls only; 290,000 tested, 0.27% active; AID 2563;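 active = fall in fluorescence gain of 50% or more versus controls, with final raw signal at or below 3038400; inconclusive = same 50% fall but final raw signal above 3038400; inactive = fall in fluorescence gain under 50%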;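 also: plate controls were neutral control wells for no effect and wells lacking membranes for full effect; tested at 10 µM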
# PABP polyA inh = blocks human PABP binding to poly(A) RNA. inhibition, % at 35 µM. fluorescence polarization. 290,000 tested, 1% active;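 active = 50% or more with normal probe brightness, or confirmed in later tests; inconclusive = above 50% with abnormal brightness, or retests that disagree; inactive = below 50% or failed in later tests; about a fifth of its hits are not listed in these tables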;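 also: calls also rest on retests at 20 µM and on dose response follow-up; controls were probe without protein and protein plus probe with vehicle; some compounds called inactive have numbers as strong as hits; many hits fall short of the cut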
# Target sequence (P11940 whole entry, looked up): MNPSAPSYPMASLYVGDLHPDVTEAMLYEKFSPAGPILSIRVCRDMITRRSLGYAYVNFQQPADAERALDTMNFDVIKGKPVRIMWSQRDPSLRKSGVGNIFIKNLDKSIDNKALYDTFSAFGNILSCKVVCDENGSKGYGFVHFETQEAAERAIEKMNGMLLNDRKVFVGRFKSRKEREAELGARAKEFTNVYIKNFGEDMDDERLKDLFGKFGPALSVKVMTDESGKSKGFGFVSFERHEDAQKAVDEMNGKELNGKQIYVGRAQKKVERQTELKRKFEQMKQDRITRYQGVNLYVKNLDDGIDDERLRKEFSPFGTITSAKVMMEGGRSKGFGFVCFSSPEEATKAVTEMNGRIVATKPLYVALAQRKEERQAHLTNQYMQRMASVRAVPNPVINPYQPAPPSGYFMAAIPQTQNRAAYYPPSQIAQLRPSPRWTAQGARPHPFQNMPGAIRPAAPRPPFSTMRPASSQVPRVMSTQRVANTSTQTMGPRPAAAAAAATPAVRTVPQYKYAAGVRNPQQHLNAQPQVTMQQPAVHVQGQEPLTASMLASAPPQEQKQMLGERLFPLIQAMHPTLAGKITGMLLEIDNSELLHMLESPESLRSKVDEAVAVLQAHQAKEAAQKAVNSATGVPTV
# MT1-MMP act inh RFP = also measured in MT1-MMP act inh; calls as there; RFP signal change, %; measured here: RFP expression control read;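 0 = vehicle wells; hits needed this value within 50% of zero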
# Active calls of the source: *; i = inactive; ? = inconclusive; · = not tested or not shown; & = joins results of further samples; [ ] = remark or other dose.
# Results follow in this order: MT1-MMP act inh	MT1-MMP act inh RFP	HIV Env fusion	CSC inhib	Yeast UUG start	eIF4H inh	Rce1 inhib	PABP polyA inh
> Cc1cc(C)c(NC(=O)COC(=O)C2=COCCO2)c(Cl)c1
    1	2	-6	12	-8	·	i	·
> CS(=O)(=O)c1ccc(Cl)c(NC(=O)c2cc(S(=O)(=O)N3CCOCC3)ccc2N2CCCC2)c1
    1	0	·	-4	-16	·	i	·
> O=C(Nc1ccn(CCCNCc2cccc3ccccc23)c(=O)n1)OCc1ccccc1
    2	-3	-3	·	-11	·	·	·
> Cn1nc(C(=O)NCCc2ccc(S(N)(=O)=O)cc2)c2c1-c1ccccc1S(=O)(=O)C2
    -4	4	12	-8	-4	8	i	44
> CCCCCN(C(=O)CSc1n[nH]c(-c2ccc(C)cc2)n1)c1c(N)n(CCCC)c(=O)[nH]c1=O
    0	-1	-18	-6	-7	·	i	·
> Cc1ccc(N(CC(=O)NCC2CCCO2)S(=O)(=O)c2ccc(Cl)cc2)cc1C (stereo not given)
    -6	-1	21	·	11	-7	i	-2
> CCC(=O)N1CN(S(=O)(=O)c2ccc(C)cc2)CC1C (stereo not given)
    2	4	-31	·	-8	6	i	3
> CCOP(=O)(OCC)C(NC(=O)c1cccs1)c1ccccc1 (stereo not given)
    -3	0	-3	0	-7	2	i	-7
> COc1cccc(C2Nc3ccccc3NC3=C2C(=O)CC(C)(C)C3)c1OC (stereo not given)
    -4	-1	12	3	-24	-5	i	-7
> O=C1CSc2ccc(S(=O)(=O)NCc3ccccc3)cc2N1
    -1	2	-4	-14	-17	-12	i	4
> CC1Cc2ccccc2N1C(=S)Nc1cccc(S(=O)(=O)N(C)C)c1 (stereo not given)
    0	4	12	15	-13	-3	i	-13
> CCn1cc(C(=O)Nc2ccc3c(c2)OCCO3)c2cc(OC)c(OC)cc2c1=O
    -2	2	-5	-11	-8	-3	i	15
> Nc1c(C(=O)c2ccccc2)sc2nsc(SCCN3CCOCC3)c12
    -143	-11	9	74	-16	4	i	2
> CCOc1cc(NC(=S)NCC2CCCO2)c(OCC)cc1NC(=O)c1ccccc1 (stereo not given)
    8	-3	-98	-10	-21	-13	i	-7
> CCOC(=O)N1CCN(S(=O)(=O)CCNC(=O)c2ccc(F)cc2)CC1
    3	1	-95	·	-13	·	i	·
> Cc1cccc(-n2nc3c(c2NC(=O)c2ccco2)CSC3)c1C
    -16	3	-13	6	9	0	i	1
> O=C(C1=C[C@@H](C2CCCCC2)C[C@@H](OCc2ccc(CO)cc2)O1)N1CCOCC1
    -5	-1	-1[16.7 µM]	-16	41&-13	-2	i	-5
> CC1=NN(c2cc(Cl)c(S(=O)(=O)O)cc2Cl)C(=O)C1
    2	1	14	·	-12	·	·	·
> C[C@@H]1CN([C@@H](C)CO)C(=O)c2cc(NC(=O)CCC(F)(F)F)ccc2O[C@H]1CN(C)S(=O)(=O)c1ccc(Cl)cc1
    2	0	·	-20	0&4	·	·	·
> C(#CCN1CCOCC1)CCCN1CCOCC1
    0	1	7	·	5	·	·	·
> CC(=O)c1ccc(NC(=O)CSC(=S)N2CCCC2)cc1
    4	1	-16	-4	·	-1	i	2
> COc1cccc(NC(=S)NCCCN2CCOCC2)c1
    4	10	8	·	·	7	i	-2
> O=C(CCCN=C1NS(=O)(=O)c2ccccc21)OCC(=O)N1CCc2ccccc21
    3	8	-79	-17	-8	-2	i	-2
> O=C(Cc1ccc(S(=O)(=O)N2CCOCC2)s1)NCCc1ccc(F)cc1
    -1	-1	-38	·	-9	·	i	·
> Cc1ccc(N(C(=O)Cc2cccs2)C2C=CS(=O)(=O)C2)cc1Cl (stereo not given)
    -3	-2	-21	-11	-15	0	i	5
> O=C1OC(c2ccccc2)=N/C1=C/c1cccc(OC(=O)c2cccs2)c1
    -2	0	·	12	-7	·	i	·
> Cn1cc(Cl)c(C(=O)Nc2cccc(Cl)c2Cl)n1
    4	3	·	5	-20	-12	i	2
> COc1ccccc1-c1cc(C(F)(F)F)nc(N2CCOCC2)n1
    -3	-3	-237	-12	-9	4	i	1
> CCOc1ccc(N(CC(=O)N2CCOCC2)S(=O)(=O)c2ccc(SC)cc2)cc1
    0	-3	9	-3	-3	-7	i	-1
> CCOCCc1nnc(NC(=O)C2CC(=O)N(c3ccc(OCC)cc3)C2)s1 (stereo not given)
    1	1	-2	-4	-3	5	i	6
> Cn1c(N)c(C(=O)COC(=O)c2ccc3c(c2)C(=O)N(c2ccc(Cl)cc2)C3=O)c(=O)n(C)c1=O
    1	1	-5	-16	·	-26	i	-44
> COc1ccc(CN(C)C(=O)C(Cc2ccccc2)NC(=O)c2ccccc2)cc1F (stereo not given)
    -1	-5	-29	·	2	·	·	·
> COc1cccc(-c2nc(CS(=O)(=O)CC(=O)NCCCN3CCOCC3)c(C)o2)c1
    1	1	-7	-5	5	-16	i	-3
> COc1ccc(OC)c(/C=N/Nc2cc(C)nc(N3CCOCC3)n2)c1
    6	-4	-2	-10	6	-9	i	-5
> Cc1c(C(=O)O)c(=O)n(-c2ccccc2)n1-c1ccccc1
    0	1	4	·	·	5	i	-7
> O=C(NNC(=O)c1cccs1)c1ccc(Cl)c(S(=O)(=O)N2CCCC2)c1
    4	-5	7	-13	-20	·	·	·
> CCOC(=O)c1c(C)[nH]c(C)c1C(=O)COc1ncnc2cc([N+](=O)[O-])ccc12
    -2	-2	-2	2	·	-1	i	6
> CC(CNc1nc2ccc(Cl)cc2n2cnnc12)c1ccccc1 (stereo not given)
    4	-5	19	13	3	-10	i	4
> Cc1nn(CCCC(=O)NCCc2ccccc2)c(=O)c2nn(-c3ccccc3)c(C)c12
    0	1	2	-25	3	-11	i	3
> COc1ccc(S(=O)(=O)N(C)CC(=O)NCc2cccnc2)cc1C
    2	-1	·	-7	-9	1	i	-4
> Cc1ccc(C)n1-c1cccc(N)c1
    ·	·	·	1	·	36	i	27
> CCOc1ccccc1-c1nc(CN2CCC(C(=O)N3CCOCC3)CC2)c(C)o1
    0	2	9	-4	-4	1	i	6
> CC(=O)Nc1ccc(NC(=O)C(C)OC(=O)C2CCN(S(=O)(=O)c3cccs3)CC2)cc1 (stereo not given)
    4	3	-1	-3	-17	-1	i	44
> CC(=O)c1ccc(C(=O)N2CCCC(N3CCN(c4ccc(F)cc4)CC3)C2)s1 (stereo not given)
    1	-4	1	-12	-5	9	i	0
> O=C1CCc2cc(S(=O)(=O)N3CCC(C(=O)NC4CCCCCCC4)CC3)ccc2N1
    -2	0	21	·	-4	6	·	8

# 3 compounds out of the list above, arranged by their value in MT1-MMP act inh, rising:
smiles,MT1-MMP act inh,MT1-MMP act inh RFP,HIV Env fusion,Yeast UUG start,Rce1 inhib
Cc1cccc(-n2nc3c(c2NC(=O)c2ccco2)CSC3)c1C,-16,3,-13,9,i
CCOC(=O)N1CCN(S(=O)(=O)CCNC(=O)c2ccc(F)cc2)CC1,3,1,-95,-13,i
CC(=O)Nc1ccc(NC(=O)C(C)OC(=O)C2CCN(S(=O)(=O)c3cccs3)CC2)cc1 (stereo not given),4,3,-1,-17,i

# Further entries follow.
# Results follow in this order: MT1-MMP act inh	MT1-MMP act inh RFP	HIV Env fusion	CSC inhib	Yeast UUG start	eIF4H inh	Rce1 inhib	PABP polyA inh
> Nc1cc(C(=O)N2CCN(c3cccc(Cl)c3)CC2)ccc1N1CC2CC(C1)c1cccc(=O)n1C2 (stereo not given)
    2	-4	-5	·	10	·	·	·
> CCOC(=O)CCC(=O)Nc1ccc(S(=O)(=O)N2CCCC2)cc1
    4	6	·	-4	-1	7	i	9
> COc1ccccc1NC(=O)NCCCN1CCN(c2cccc(Cl)c2)CC1
    1	1	-2	5	-7	-1	i	-22
> COc1cc(/C=C2\C(=O)N(c3ccc(NC(C)=O)cc3)N=C2c2ccccc2)ccc1O
    6	3	13	9	-15	-1	i	-5
> CCc1cccc(C)c1NC(=O)COn1nnc2ccc(C(F)(F)F)cc21
    -1	0	3	4	·	-7	i	14
> CCNC(=O)C1(C)CCCN(C(=O)c2ccc3sccc3c2)C1 (stereo not given)
    6	6	-43	·	-12	·	·	·
> CCc1ccc(NC(=O)CCc2c(C)nn(-c3ccc(N4CCCCC4)nn3)c2C)cc1
    2	-5	-25	5	-15	-15	i	10
> Cc1cc2cc(C=O)c(Cl)nc2cc1C
    4	-2	-106	6	1	-1	i	6
> O=C(COc1ccc(Br)cc1)N/N=C1/SCC(=O)N1Cc1ccccc1
    2	-1	1	-12	·	10	i	2
> CN(C(=O)CSc1nnnn1-c1ccc(O)cc1)C1CCS(=O)(=O)C1 (stereo not given)
    1	1	1	-11	-13	4	i	4
> CCOC(=O)N1CCC(Nc2c(NCCN3CCN(c4ccccc4F)CC3)c(=O)c2=O)CC1
    3&5	-3&-4	27&10	-4	-2&-25	-6	i	3
> Cc1ccc(O)c(NC(=O)CSc2ccc(Cl)cc2)c1
    7	-2	6	2	-20	0	i	-2
> Nc1ncccc1OCc1ccc(Cl)c(Cl)c1
    4	-10	-43	27	-12	9	i	1
> CC1=C(C(=O)Nc2ccccc2F)C(c2cccs2)C2=C(CCCC2=O)N1 (stereo not given)
    8	6	13	-10	·	0	i	-2
> CCOc1ccc(-c2c(C#N)c(N)nc3c2c(=O)n(C)c(=O)n3C)cc1OC
    5	6	·	·	-4	-6	i	8

# In another format: results already given
CCNC(=O)C1(C)CCCN(C(=O)c2ccc3sccc3c2)C1 (stereo not given)
  MT1-MMP act inh: 6 | MT1-MMP act inh RFP: 6 | HIV Env fusion: -43 | CSC inhib: · | Yeast UUG start: -12 | eIF4H inh: · | Rce1 inhib: · | PABP polyA inh: ·
COc1ccccc1NC(=O)NCCCN1CCN(c2cccc(Cl)c2)CC1
  MT1-MMP act inh: 1 | MT1-MMP act inh RFP: 1 | HIV Env fusion: -2 | CSC inhib: 5 | Yeast UUG start: -7 | eIF4H inh: -1 | Rce1 inhib: i | PABP polyA inh: -22

# Taken from above:
# Result for Nc1cc(C(=O)N2CCN(c3cccc(Cl)c3)CC2)ccc1N1CC2CC(C1)c1cccc(=O)n1C2 (stereo not given) under Yeast UUG start: 10
# Result for CCOC(=O)N1CCC(Nc2c(NCCN3CCN(c4ccccc4F)CC3)c(=O)c2=O)CC1 under PABP polyA inh: 3
# Result for CCOC(=O)CCC(=O)Nc1ccc(S(=O)(=O)N2CCCC2)cc1 under Yeast UUG start: -1

# (listing goes on)
# Results follow in this order: MT1-MMP act inh	MT1-MMP act inh RFP	HIV Env fusion	CSC inhib	Yeast UUG start	eIF4H inh	Rce1 inhib	PABP polyA inh
> CCN(CC)C(=O)C1CCCN(Cc2sccc2C)C1 (stereo not given)
    -4	1	·	-2	-20	-12	i	21
> COc1cc(=O)[nH]c(SC(C)C(=O)Nc2nc3c(s2)CCCC3)n1 (stereo not given)
    5	8	-9	-3	-8	-14	i	1
> Nc1ccccc1NC1CCCCC1
    4	4	11	·	·	?	·	6
> NC(=S)NNC(=O)c1cc(C(F)(F)F)cc(C(F)(F)F)c1
    0	1	-5	-23	-19	-1	i	1
> CC(=O)CCc1c[nH]c2c(C(=O)O)cccc12
    1	7	·	-5	-18	1	i	5
> COCCCNC(=O)c1ccc2c(c1)ncn2-c1ccc(C)cc1C
    1	-2	10	6	-1	2	i	5
> O=C(CN1C(=O)c2ccccc2S1(=O)=O)c1ccc(F)cc1
    -2	-1	?	9	-4	-8	i	-3
> Nc1nc2c(F)c(F)c(F)cc2s1
    -1	2	-9	-8	·	-5	i	8
> COc1cccc(C2=NN(C(=O)c3ccco3)C(c3ccco3)C2)c1 (stereo not given)
    -1	0	-27	3	0	2	i	15
> CC(=O)N1C(C(=O)O)Cc2c([nH]c3ccccc23)C1(C)C (stereo not given)
    -1	3	3	-24	-10	3	i	2

# Assay outcomes deposited in PubChem by several laboratories.

# Only part of the results is shown; rates above refer to the full screens.
